Bioassay records deposited in PubChem by Johns Hopkins Ion Channel Center.
KCNQ2 enhance = potentiators of rat KCNQ2 potassium channel. Potassium voltage-gated channel subfamily KQT member 2 (Rattus norvegicus), O88943. CHO-K1 KCNQ2, FluxOR thallium flux fluorescence; active compounds read high. B-score at 10 µM. hit rate 0.54% among 310,000. AID 2239, 2010;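 active means fluorescence ratio B-score at least 3 SD of library B-scores, with initial fluorescence B-score within 3 SD, cut at about 5.3 in these data; same plate scores as AID 2156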;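 further: B-score of peak minus minimum over baseline fluorescence ratio after K+ and Tl+ stimulus; positive B-score means potentiation of KCNQ2 with more thallium influx and brighter signal; only the inactives scoring about 0 or higher are listed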
Target sequence (O88943 whole entry, looked up): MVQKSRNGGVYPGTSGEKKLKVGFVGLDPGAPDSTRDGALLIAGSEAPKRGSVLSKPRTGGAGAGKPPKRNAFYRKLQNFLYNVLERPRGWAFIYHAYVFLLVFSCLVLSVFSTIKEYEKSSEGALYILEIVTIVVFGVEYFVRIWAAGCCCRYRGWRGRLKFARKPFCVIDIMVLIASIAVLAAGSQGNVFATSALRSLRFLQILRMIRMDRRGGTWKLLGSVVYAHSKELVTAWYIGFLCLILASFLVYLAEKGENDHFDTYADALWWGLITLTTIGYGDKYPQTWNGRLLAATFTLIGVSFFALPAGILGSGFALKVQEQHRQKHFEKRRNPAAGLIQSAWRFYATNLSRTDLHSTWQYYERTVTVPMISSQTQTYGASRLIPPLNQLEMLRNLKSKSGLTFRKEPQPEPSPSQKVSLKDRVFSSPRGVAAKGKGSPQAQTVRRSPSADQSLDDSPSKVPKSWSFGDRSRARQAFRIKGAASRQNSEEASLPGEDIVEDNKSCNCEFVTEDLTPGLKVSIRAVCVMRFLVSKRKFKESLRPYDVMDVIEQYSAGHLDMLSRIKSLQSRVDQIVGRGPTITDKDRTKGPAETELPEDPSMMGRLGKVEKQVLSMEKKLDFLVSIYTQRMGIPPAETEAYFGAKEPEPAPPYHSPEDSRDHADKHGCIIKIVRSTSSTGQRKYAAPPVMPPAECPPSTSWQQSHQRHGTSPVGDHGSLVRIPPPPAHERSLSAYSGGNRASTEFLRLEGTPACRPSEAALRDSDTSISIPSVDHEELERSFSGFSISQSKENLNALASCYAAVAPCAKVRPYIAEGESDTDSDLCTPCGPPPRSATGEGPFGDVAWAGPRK
KCNQ2 enhance baseline = recorded beside KCNQ2 enhance, whose call it bears; B-score; compound at 10 µM; measured here: initial fluorescence intensity artifact check;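 brightness before thallium and not channel activity; 0 = typical well and far values either way flag optical interference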
* = called active by the depositor.

SMILES	KCNQ2 enhance	KCNQ2 enhance baseline
COc1cc(-c2noc(CCC(N)=O)n2)cc(OC)c1OC	1.4	-1.2
Cc1cc(C)cc(-n2c(C)cc(/C=N/NC(=O)CSc3ncccn3)c2C)c1	0.01	1.6
CC1CCCCN1c1ncnc(N)c1[N+](=O)[O-] (stereo not given)	1.5	1.6
N#Cc1cc(C(=O)c2cc(F)ccc2O)cn(Cc2ccccc2)c1=O	0.89	-0.02
Fc1ccccc1-c1nc2ncccc2o1	0.36	-0.94
O=c1c(S(=O)(=O)c2ccc(Cl)cc2)cn(Cc2ccccc2F)c2ccc(F)cc12	1.5	-1.9
CCOC(=O)c1c(C)[nH]c(C)c1C(=O)COC(=O)/C=C/c1cccc(Cl)c1	0.07	0.76
O=C(NC1CC2CCCC(C1)N2C(=O)NC1CCCCC1)c1ccc(F)cc1 (stereo not given)	0.58	0.53
COc1ccc(Cl)cc1S(=O)(=O)NC(C)C(=O)NCc1ccc2c(c1)OCO2 (stereo not given)	0.01	0.02
COCCCNc1nc2c(c(=O)n(Cc3ccc(F)cc3)c(=O)n2C)n1C	1.1	-1.4
C/C(O)=C\c1nc2ccccc2oc1=O	0.24	0.54
Cc1ccc(CN2CCN(Cc3cn(C)nc3-c3ccccc3)CC2CCO)o1 (stereo not given)	1.2	-0.23
CC(=O)Oc1ccc(C(=O)Nc2ccccc2C(=O)N2CCCCC2)cc1	1.3	0.04
CCOC(=O)C1CCN(C(=S)NC(=O)c2cccs2)CC1	0.2	-1.3
COc1ccccc1C1CC(c2ccc(Cl)cc2)Nc2nc(N)nn21 (stereo not given)	1.6	-0.19
COc1ccc(/C=C2\N=C(C)N(c3ccc(C(=O)O)cc3)C2=O)cc1OC	0.7	2.3
CCOc1ccc(NC(=S)N2CCN(S(C)(=O)=O)CC2)cc1	0.86	0.76
COc1cc(Cl)c(C)cc1NC(=O)Cc1ccc(OC)c(OC)c1	0.01	1.1
CCOC(=O)c1nn(-c2ccccc2)c(C#N)c1N	0.27	-0.2
CN(CCOc1ccccc1)C(=O)c1ccc2c(=O)n3c(nc2c1)CCC3	1.3	-0.05
N#C/C(=C\c1c(N2CCC(C(N)=O)CC2)nc2ccccn2c1=O)S(=O)(=O)c1ccccc1	0.69	0.67
Fc1ccc(C2NC(=S)NC3=C2N2CCC3CC2)cc1 (stereo not given)	0.01	0.03
COc1cccc(NS(=O)(=O)NC(=O)c2c(C)[nH]c3ccccc23)c1	0.24	0.29
COc1cccc(CN2CC(C(=O)NCCCc3ccncc3)CCC2=O)c1 (stereo not given)	1.1	-2.1
CC1=NNC(=O)C1CC(=O)N/N=C/C(Br)=C/c1ccccc1 (stereo not given)	0.99	-3.6
COc1ccc(CC(=O)NC(C)(C)C)cc1S(=O)(=O)N1CCOCC1	0.89	-0.02
CCn1c(SCC(=O)NC(=O)NCc2ccco2)nnc1-c1cccs1	0.25	0.62
C/C(=N\NC(N)=S)c1ccc(-n2ccnc2)cc1	0.02	0.82
COc1ccc(-c2cc(-c3ccccc3)nc(SCC(=O)Nc3ncc(C)s3)c2C#N)cc1	1.2	0.14
CC(C)(C)C(=O)CN1CCN(C2c3ccccc3-c3ccccc32)CC1	0.96	-0.79
Cc1oc2cc(O)ccc2c(=O)c1Oc1ccccc1	0.86	0.06
CC1(C)CC(=O)C2=C(C1)N(c1ccccc1)C(=O)C2(O)C(F)(F)F (stereo not given)	1.7	0.78
COc1ccc(-c2ccc(CNCc3ccccn3)o2)cc1Cl	1.9	0.38
CCOC(=O)NN1C(=O)c2ccccc2NC1c1ccccc1 (stereo not given)	0.78	1.2
COCCNS(=O)(=O)c1cc(OC)c(C)cc1C	0.46	-0.54
Cc1ccc(NC(=O)CN(C)C(=S)NC2CC2)cc1	0.16	-0.58
CN1CCN(c2ccc(-c3cccc(NC(=O)COc4ccc(Cl)cc4Cl)c3)nn2)CC1	1.3	-0.5
COc1ccc(C(=O)NCCc2nnc(SCC(=O)Nc3ccccc3C(C)C)n2C)cc1	1.3	-0.81
O=C(O)CCCNS(=O)(=O)c1ccc(NCc2ccccc2)c(C(=O)O)c1	0.02	1.8
Cc1cc(NC(=O)COC(=O)C2CCN(C(=O)c3ccc(Cl)cc3)CC2)no1	0.11	-0.98
O=C(Nc1ccc2nc(-c3cccs3)[nH]c2c1)c1cccs1	1.5	-0.4
CC1=[N+]([O-])C(C)(C)CC(C)(C)c2ccccc21	1.1	1.3
CC(Oc1ccc(Cl)cc1)C(=O)NCC1CCCO1 (stereo not given)	0.54	-0.23
O=C(CSc1ncnc2c1cnn2-c1cccc(Cl)c1)NCC1CCCO1 (stereo not given)	0.15	-0.48
OCC1(Cc2ccccc2)CCCN(Cc2c[nH]c3ccccc23)C1 (stereo not given)	0.05	1.5
c1ccc(-c2ccccc2OCc2nnc3n2CCC3)cc1	1.3	-2.3
CC(C)c1[nH]nc2c1C(c1ccco1)C(C#N)=C(N)O2 (stereo not given)	0.53	1.4
Cc1cccc(C(=O)Nc2ccc(N3CCN(c4ccc(C(F)(F)F)cn4)CC3)nc2)c1	0.19	0.16
N#Cc1cnn2cc(CCN3CCOCC3)c(-c3ccc(F)cc3)nc12	0.76	0.12
N#CC1CCCc2c1[nH]c1ccc([N+](=O)[O-])cc21 (stereo not given)	1.6	0.22
c1ccc(Oc2cccc(OCCn3cncn3)c2)cc1	0.4	0.96
Cc1c(C(=O)Nc2nc3ccccc3[nH]2)oc2ccccc12	0.2	-0.05
CC(C)(C)C(CN1CCCC1)OC(=O)c1ccccc1 (stereo not given)	0.32	-0.13
Cc1ccc(N(CCC#N)C(=O)CCl)cc1C	1.8	-1.4
CC(=O)Nc1cccc(-c2csc(Nc3cccc(C)n3)n2)c1	0.15	0.98
CC1Cc2nc(SCC(=O)Nc3ccc(F)cc3)n(C)c(=O)c2S1 (stereo not given)	0.72	0.18
CCOCCCNC(=O)COc1ccc(OC)cc1	0.01	-0.4
Cc1c(C#N)c2ccccc2n1CC(=O)N1CCCC1	0.58	-0.35
CCOC(=O)C1=C(O)/C(=C\c2ccc(CNC(=O)C(=O)Nc3ccccc3)o2)N=C1C	0.69	1.9
O=C(C[n+]1cccc2ccccc21)c1ccc(NC(=O)c2ccccc2)cc1	0.03	-1.1

Going on with the list:
SMILES	KCNQ2 enhance	KCNQ2 enhance baseline
Cn1c(NNC(=O)CCC2CCCCC2)cc(=O)n(C)c1=O	0.21	-1.4
COc1ccc(C(=O)OCC(=O)NCCCc2ccccc2)cc1[N+](=O)[O-]	0.77	-0.02
CSc1ccc(CCNC(=O)CCc2nnc3ccc(N4CCOCC4)nn23)cc1	0.67	1.1
COc1ccccc1NC(=O)CSc1nnc(Cc2cccs2)n1C	0.94	0.07
CCc1cccc(NS(=O)(=O)c2ccc3c(c2)N(C)CCO3)c1	0.65	1.1
Cc1nc2nc[nH]n2c(=O)c1CCOC(=O)c1c(F)cccc1F	1.6	1.1
O=C(NNC(=O)c1ccc([N+](=O)[O-])cc1C(=O)O)c1ccncc1	0.02	-1.2
O=C(NCCN1C(=O)S/C(=C\c2cccnc2)C1=O)C1=NN(c2ccccc2)C(=O)CC1	0.33	-0.6
CCOCCCNS(=O)(=O)c1ccc(NC(=O)c2ccc([N+](=O)[O-])cc2Cl)cc1	0.59	0.92
Cc1sc(N2C(=O)C3C4C=CC(C4)C3C2=O)c(C#N)c1C (stereo not given)	0.47	2.2
Cc1ccccc1C(=O)N1CCC(C(=O)N(C)CC(=O)Nc2cccc(F)c2)CC1	1.4	0.52
CN(C)c1nc(NCc2ccccc2)nc(Oc2ccc(=O)[nH]n2)n1	1.4	0.25
CCOc1ccccc1C1C(C(N)=O)=C(C)Nc2nc(CCCO)nn21 (stereo not given)	0.53	1.2
Cc1ccc(S(=O)(=O)NN2C(=O)/C(=C/c3cccnc3)SC2=S)cc1	1.5	0.55
COc1ccc(NC(=O)c2cc(CC(C)C)on2)cc1OC	0.15	0
COc1cc(/C(=C/c2ccccc2)c2ccccc2)c2c(c1)oc1ccccc12	0.5	0.51
COc1ccc(C2OCC3(O)C(c4ccc(OC)c(OC)c4)OCC23)cc1OC (stereo not given)	0.29	0.03
Cn1cccc1Cc1nnc(SCC(=O)NCc2ccccc2)n1-c1ccc(F)cc1	1.6	0.75
Cc1ccc(-c2nc(CS(=O)CC(=O)NCCCN3CCN(Cc4ccccc4)CC3)c(C)o2)cc1 (stereo not given)	0.75	0.85
CC1CCC2(CC1)NC(=O)N(CC(=O)c1ccc3c(c1)OCO3)C2=O (stereo not given)	1.3	-0.01
CCOC(=O)C1(Cc2ccc(Cl)cc2)CCN(Cc2cnc(N)nc2)CC1	1.3	0.05
O=C(Cn1c(=O)oc2cc(S(=O)(=O)N3CCCC3)ccc21)N1CCN(c2ccccc2)CC1	0.1	0.38
COc1ccc(CNC(=O)C2CCCN2C(=O)NCc2ccccc2)cc1 (stereo not given)	1.6	-1.3
O=C(COc1ccccc1)Nc1nccs1	1.1	0.15
Cc1cc2c(cc1S(=O)(=O)N1CCCC1)n(C)c(=O)c(=O)n2C	2.5	-0.98
N#Cc1nnn(-c2ccc(Cl)cc2)c1N	0.17	-1
C=CCc1cc(Cl)ccc1OCCCn1ccnc1	0.22	1.1
Nc1nnc(SCC(=O)Nc2ccc(Cl)c(C(=O)O)c2)s1	0.32	-0.36
O=C(CSc1nnc(CNc2cccc(C(F)(F)F)c2)n1Cc1ccco1)NCc1ccco1	0.14	0
CCOc1c(Cl)cc(C(=O)Nc2ccccc2C(=O)O)cc1Cl	2	-0.29
CCOc1ccc(NC(=O)CSc2ccc(-c3cccnc3)nn2)cc1	1.4	-0.46
Cc1cccc(N=c2c([N+](=O)[O-])nn(-c3ccc(Cl)cc3)n2O)c1	0.09	-2
CCOC(=O)CCNCc1ccc(OC)c(OC)c1	0.31	-2.1
CCOc1ccc(S(=O)(=O)N2CCCC(C(=O)NCc3ccncc3)C2)cc1Cl (stereo not given)	0.98	1.7
COc1ccc(NC(=O)COC(=O)CNS(=O)(=O)c2ccc(F)c(F)c2F)cc1OC	0.09	-0.17
Cn1cc([N+](=O)[O-])c(C(=O)Nc2ccn(Cc3c(F)c(F)cc(F)c3F)n2)n1	0.5	-0.5
Fc1ccc(CNc2nc(-c3cccnc3)nc3ccccc23)cc1	1	-0.17
CN1CCN(C(=O)CCc2nc3ccccc3n2-c2ccccc2)CC1	1.9	-1.1
CCOC(=O)Cc1nnc(NC(=O)CSc2nnc3c4ccccc4n(C)c3n2)s1	1.1	-0.03
O=C(CC1NCCN(Cc2ccccc2)C1=O)Nc1ccc(Cl)cc1 (stereo not given)	0.69	1

Entries above containing an aryl thioether with sulfur outside any ring (13):
SMILES	KCNQ2 enhance	KCNQ2 enhance baseline
Cc1cc(C)cc(-n2c(C)cc(/C=N/NC(=O)CSc3ncccn3)c2C)c1	0.01	1.6
CCn1c(SCC(=O)NC(=O)NCc2ccco2)nnc1-c1cccs1	0.25	0.62
COc1ccc(-c2cc(-c3ccccc3)nc(SCC(=O)Nc3ncc(C)s3)c2C#N)cc1	1.2	0.14
COc1ccc(C(=O)NCCc2nnc(SCC(=O)Nc3ccccc3C(C)C)n2C)cc1	1.3	-0.81
O=C(CSc1ncnc2c1cnn2-c1cccc(Cl)c1)NCC1CCCO1 (stereo not given)	0.15	-0.48
CC1Cc2nc(SCC(=O)Nc3ccc(F)cc3)n(C)c(=O)c2S1 (stereo not given)	0.72	0.18
CSc1ccc(CCNC(=O)CCc2nnc3ccc(N4CCOCC4)nn23)cc1	0.67	1.1
COc1ccccc1NC(=O)CSc1nnc(Cc2cccs2)n1C	0.94	0.07
Cn1cccc1Cc1nnc(SCC(=O)NCc2ccccc2)n1-c1ccc(F)cc1	1.6	0.75
Nc1nnc(SCC(=O)Nc2ccc(Cl)c(C(=O)O)c2)s1	0.32	-0.36
O=C(CSc1nnc(CNc2cccc(C(F)(F)F)c2)n1Cc1ccco1)NCc1ccco1	0.14	0
CCOc1ccc(NC(=O)CSc2ccc(-c3cccnc3)nn2)cc1	1.4	-0.46
CCOC(=O)Cc1nnc(NC(=O)CSc2nnc3c4ccccc4n(C)c3n2)s1	1.1	-0.03

(further entries)
SMILES	KCNQ2 enhance	KCNQ2 enhance baseline
Cc1ccc(CN2CCN(/N=C/c3cccnc3)CC2)cc1	0.99	-1.3
CCn1c(CSc2nc(C)cc(C)n2)nnc1SCC(N)=O	0.2	1.4
CC(=O)CC(=O)NC(=NC1CCCCC1)Nc1nc(C)cc(C)n1	0.41	0.33
Cn1c(SCC(=O)NC2CCCC2)nc2c(c1=O)SCC2	0.04	-2
O=C(c1ccc2c(=O)n3c(nc2c1)CCCCC3)N1CCN(c2ccc(Cl)cc2)CC1	0.68	-1.4
O=C(N/N=C/c1ccc(Br)cc1)c1ccc(F)cc1	0.86	-0.44
COc1ccc(OC)c(N2C(=O)CCCC2=O)c1	0.16	0.75
O=C(Nc1ccc(F)cc1)C1(S(=O)(=O)c2ccc(Cl)cc2)CC1	0.16	0.6
CCOC(=O)C1=C(COC(=O)Cc2ccccc2)NC(=O)NC1C (stereo not given)	1.5	0.37
O=C(Cc1cc(=O)oc2cc(O)ccc12)N[C@@H](Cc1c[nH]c2ccccc12)C(=O)O	1.6	0.11
CN(Cc1ccccc1)C(=O)c1cc2cc(F)ccc2[nH]1	0.15	0.92
Cc1cc(Cl)ccc1OC(C)C(=O)NN1C(=O)c2ccccc2C1=O (stereo not given)	0.61	-1
Cc1cc([N+](=O)[O-])ccc1NC(=O)CN1C2CCC1CC(NC(=O)NC13CC4CC(CC(C4)C1)C3)C2 (stereo not given)	1.4	-1.3
NS(=O)(=O)c1ccc(Nc2nc(-c3cccc([N+](=O)[O-])c3)cs2)cc1	1.9	-1.9
CCOc1ccccc1C(=O)NCc1ccc2c(c1)OCO2	1.3	0.08
CCOc1ccc(N(Cc2nnc3n2CCCCC3)C(=O)Nc2cccc(C)c2)cc1	0.08	-0.51
CSc1ncc(Cl)c(C(=O)Nc2ccc(C)c(C)c2)n1	0.07	0.3
C=CCNC(=O)COCc1cc(-c2ccc3c(c2)OCO3)on1	0.3	-0.16

These rows are one share of the data, so the mix of outcomes need not match the whole.
